# SARS PLpro yeast – SARS-CoV PLP inhibition in yeast; Potency, µM (series often up to 32.9 µM), inactives show top-dose activity, positive = growth rescue; S. cerevisiae expressing SARS-CoV PLpro, growth rescue; control for the full effect not named in the record; 0.19% of 330,000 active; further: 0% is about no effect; nearly all actives have a fitted effect of over 55% in size; growth read by luminescence after 48 h
# Marburg entry inh – blocks Marburg virus binding to or entry into cells | 1.8% of 300,000 active | Potency, µM (top dose mostly 37.8 µM), for inactives: top-dose activity change, negative = inhibition, most hits filed as inhibitors | AID 540276 | Marburg virus pseudotyped entry inhibition, cell reporter; control for the full effect not named in the record; about a third of the inactives were read at about 46 µM; active = well fitted inhibition curve with a large enough effect; inconclusive = small, poorly fitted or top-dose-only effect, or effect the other way; inactive = flat fitted curve, though single readings scatter; tested in HEK293 cells; about a fifth of its hits are not listed in these tables; further: on the % scale 0 is the no-effect control and ±100 the full control effect; luciferase read-out
# Cruzain inh noDet – blocks cruzain activity in detergent-free assay; P25779; purified cruzain, Z-FR-AMC fluorescence, no detergent; Potency, µM, inactives show max response, negative = inhibition, hits mostly inhibitors; 2.3% of 200,000 active; AID 1476; active means well fitted curve in the direction sought with a large enough effect; inconclusive means small, poorly fitted or top-dose-only effect, or another doubt; inactive means no such curve, though single readings can be large; an effect the other way counts as inactive or inconclusive;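 further: plate controls were enzyme without inhibitor for no effect and buffer without enzyme for full effect; nearly all actives have a fitted effect of over 40% in size; top concentration of the series not given in the record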
# Target sequence (P25779 123-467 limits assumed): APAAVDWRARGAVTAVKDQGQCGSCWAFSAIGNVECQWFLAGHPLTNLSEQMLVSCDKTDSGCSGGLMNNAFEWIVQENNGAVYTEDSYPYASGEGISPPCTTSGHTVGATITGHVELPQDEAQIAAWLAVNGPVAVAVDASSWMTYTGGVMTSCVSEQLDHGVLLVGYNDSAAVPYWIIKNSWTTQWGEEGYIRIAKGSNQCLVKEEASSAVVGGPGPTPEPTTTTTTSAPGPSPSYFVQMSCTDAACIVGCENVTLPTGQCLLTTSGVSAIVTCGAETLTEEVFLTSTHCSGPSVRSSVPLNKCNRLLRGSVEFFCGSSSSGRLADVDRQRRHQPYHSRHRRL
#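 Detergent-free condition (0.00005% Triton X-100) in acetate buffer pH 5.5 with DTT. 1.5 nM enzyme and compound were pre-mixed 15 min, then 2 uM Z-FR-AMC substrate added; reaction progress from fluorescence change between first and third reads (60 s).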
# Cruzain inh Det – blocks cruzain activity in presence of Triton detergent; Potency, µM, for the others: max response, negative = inhibition, hits mostly inhibitors; P25779; 0.43% of 200,000 active; purified cruzain, Z-FR-AMC fluorescence, 0.01% Triton; active means well fitted curve in the direction sought with a large enough effect; inconclusive means small, poorly fitted or top-dose-only effect, or another doubt; inactive means no such curve, though single readings can be large; an effect the other way counts as inactive or inconclusive;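 further: plate controls were neutral wells for no effect and buffer without enzyme for full effect; nearly all actives have a fitted effect of over 40% in size; top concentration of the series not given in the record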
#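 Detergent-containing arm of a paired screen for aggregation-based inhibition: 0.01% Triton X-100 present. Cruzain at 1.5 nM cleaved 2 uM Z-FR-AMC at pH 5.5 with 5 mM DTT; AMC fluorescence gain over 60 s measured activity.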
# NS1 inh – blocks influenza NS1 protein function; S. cerevisiae slowed by influenza A NS1, growth recovery by OD600; Potency, µM (titrated, usually from 46.1 µM), for inactives: top-dose activity, positive = more growth; 0.4% of 270,000 active; AID 2326; further: actives are rising curves; nearly all actives have a fitted effect of over 50% in size
#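 S. cerevisiae expressing influenza A NS1, grown in glucose, washed, then diluted 1:100 into pH 6.0 -URA galactose medium with 23 nl compound. Growth recovery read as OD600; NS1-free strain serves as control.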
# LASV entry inh – blocks Lassa virus binding to or entry into cells. Potency, µM (titrated, usually from 37.9 µM), without a hit: at the highest dose activity change, negative = inhibition, usual class: inhibitors. AID 540256. 1.2% of 300,000 active. Lassa virus pseudotype entry inhibition, cell reporter; control for the full effect not named in the record; active means well fitted inhibition curve with a large enough effect; inconclusive means small, poorly fitted or top-dose-only effect, or effect the other way; inactive means flat fitted curve, though single readings scatter; tested in HEK293 cells; further: on the % scale 0 is the no-effect control and ±100 the full control effect; nearly all actives have a fitted effect of over 50% in size; luciferase read-out
# 2A StopGo – FMDV 2A StopGo reporter, luciferase signal. AID 1159524. 1.2% of 410,000 active. Potency, µM (highest dose often 57.9 µM), inactives show top-dose signal change, negative = less light. human cells with a luciferase reporter of 2A StopGo recoding; control for the full effect not named in the record; active = well fitted falling curve with a large enough effect; inconclusive = small, poorly fitted or top-dose-only effect; inactive = no such curve, though single readings can be large or run the other way; tested in HEK293T cells; further: on the % scale 0 is the no-effect control and ±100 the full control effect; nearly all actives have a fitted effect of over 45% in size; luciferase light after 4 h
# RE007 growth inh – less growth of the S. pombe RE007 Vpr strain; S. pombe RE007 Vpr strain, BacTiter-Glo ATP luminescence, 24 h; control for the full effect not named in the record; Potency, µM (top dose mostly 92.2 µM), without a hit: at the top dose activity change, negative = less growth; 0.21% of 360,000 active; AID 651644; active = well fitted falling curve with a large enough effect; inconclusive = small, poorly fitted or top-dose-only effect; inactive = no such curve, though single readings can be large or run the other way;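 further: on the % scale 0 is the no-effect control and ±100 the full control effect; nearly all actives have a fitted effect of over 50% in size; the assay follows cell death caused by Vpr and the record does not say whether a fall means rescue or toxicity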
#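 Fission yeast strain RE007, carrying one chromosomally integrated HIV-1 vpr copy, was seeded at OD 0.01 in PMG+AL medium with 23 nL pinned compound. After 24 h at 30 °C and 99% humidity, viability was read by BacTiter-Glo luminescence.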
# * marks the source's active call; other numbers are inactive results; u = inconclusive; x = no result given; & = joins results of further samples; [ ] = dose if it differs, or a comment. Unless noted, the call rests on the fitted dose curve; in most records, active means well fitted rising curve with a large enough effect; inconclusive means small, poorly fitted or top-dose-only effect; inactive means no such curve, though single readings can be large or run the other way. Potency means the concentration at half of the fitted maximal effect.
SMILES,SARS PLpro yeast,Marburg entry inh,Cruzain inh noDet,Cruzain inh Det,NS1 inh,LASV entry inh,2A StopGo,RE007 growth inh
Cc1c(C(=O)NC2CCCCC2)sc2ncnc(N3CCN(c4ccccc4)CC3)c12,12%,5%[46.1 µM],x,x,-4%,2%[46.1 µM],-26%,2%
Cc1ccc(S(=O)(=O)NCC(=O)NNC(=O)c2ccccc2Cl)cc1C,1%,-13%[46.1 µM],x,x,x,-12%,-6%,4%
O=C(Cn1nnc(-c2ccccc2)n1)Nc1cccc(S(=O)(=O)N2CCCC2)c1,2%,-22%,x,x,x,-15%,-22%,-17%
O=C(Nc1cccn2ncnc12)c1cccc(C(F)(F)F)c1,-4%,3%[46.1 µM],x,x,x,-11%[46.1 µM],u,-28%
COc1ccc(/C=C2/CCCc3ccccc3C2=O)cc1,x,u,x,x,x,-3%,-36%,11%
Cc1nn2c(c1-c1ccccc1)N=C(c1ccco1)CC2c1ccccc1 (stereo unspecified),-7%,0.52µM*,-2%,-8.7%,22%,u,8%,3%
COc1ccc(-c2cnc(N)n2C)cc1,0%,x,x,x,0%,x,-11%,-24%
CCOC(=O)c1cnc(SCC(=O)Nc2ccc(N3CCOCC3)c(Cl)c2)nc1N,8%,-9%,-4%,7.1%,-5%,1%,-7%,5%
O=C(COc1ccc(Cl)cc1)NCC(c1ccco1)S(=O)(=O)c1ccc(F)cc1 (stereo unspecified),x,x,11%,-6.3%,x,-27%[46.1 µM],-25%,x
Fc1ccccc1C1CCN(Cc2nc(COc3ccccc3)no2)C1 (stereo unspecified),-1%,x,x,x,-1%,x,-3%,-21%
Cc1cc(OCCn2ccnc2)ccc1C(C)C,-7%,u,-5%,3.0%,16%,0%,2%,7%
COc1cccc(OCCn2cccc2/C=C2/C(=N)N3OC(C)=CC3=NC2=O)c1,-8%,16%,x,x,x,21%,-6%,6%
NC(=O)c1ccccc1N/C=C/C(=O)c1ccc(F)cc1,-36%,5%,-29%,-2.1%,-146%,x,14%,x
CCOC(=O)C(=NC1CCCCC1)NNc1cccc(C(F)(F)F)c1,-71%,-8%,0%,-14%,-22%,-12%,11%,38%
CCn1nc(-c2ccccc2)c(-c2ccccc2)c(C(=O)Nc2nc(C)c(C(=O)N(C)C)s2)c1=O,x,-13%[46.1 µM],u,-0.4%,x,-24%[46.1 µM],-10%,x
N#Cc1cc2c(nc1SCC(=O)O)CCCC2,9%,4%,-4%,1.4%,1%,6%,-11%,-2%
COc1cccc(-n2nnnc2SCC(=O)Nc2nc3c(s2)CCCC3)c1,4%,1%,25µM*,-6.2%,10%,2%,-1%,6%
CCOC(=O)CCc1c(C)c2ccc(OC3CCCCC3=O)cc2oc1=O (stereo unspecified),-4%,-3%,x,x,-1%,31%,u,-20%
COC(=O)C1CCN(S(=O)(=O)CCNC(=O)c2ccc(F)cc2)CC1,1%,4%[46.1 µM],x,x,x,8%,-1%,2%
Cc1cc(Cl)ccc1OCCCC(=O)NCC1CCCO1 (stereo unspecified),2%,-19%[46.1 µM],2%,1.4%,-10%,u,-21%,-17%
CC(=O)c1c(C(C)=O)c(C)n(-c2ccc(N)c(C)c2)c1C,2%,4%[46.1 µM],2%,2.1%,0%,-8%,0%,6%
CCc1ccc(/C=C2\Oc3c(ccc(O)c3CN3CCN(C)CC3)C2=O)cc1,-1%,x,x,x,18%,x,-14%,-2%
COc1ccc(S(=O)(=O)N2CCCCCC2)cc1C(=O)Nc1cccc(C)n1,6%,u,x,x,-5%,-9%,4%,-16%
Cc1nc(NC(=O)/C=C/c2ccccc2)sc1C(=O)Nc1ccc(Cl)cc1,-9%,u,1%,5.8%,5%,1%,0%,-3%
CC(C)Cc1ccc(S(=O)(=O)N2CCN(C(=O)c3ccco3)CC2)cc1,-1%,u,-4%,0.2%,-6%,-10%,x,5%
CCC1=NN(C(=O)Cc2ccc([N+](=O)[O-])cc2)C(O)(C(C)(C)C)C1 (stereo unspecified),-1%,u,x,x,x,13%,-30%,4%
Cc1ccc(-n2c3c(cc(C(=O)Nc4cccc(C)n4)c2=O)C(=O)CCC3)cc1,15%,x,-2%,4.7%,-7%,x,x,x
COc1ccc(-c2noc(-c3ccc(NC4CCCC4)c([N+](=O)[O-])c3)n2)cc1OC,x,18%[46.1 µM],u,-3.6%,x,24%[46.1 µM],-17%,x
O=C(CSc1nc2ccccc2[nH]1)NCc1ccco1,-3%,u,-16%,0.0%,-14%,4%,x,-1%
CCC(=NC1CC(C)(C)NC(C)(C)C1)C1=C(O)CC(C)(C)CC1=O,-5%,-8%,-14%,-1.9%,-8%,-3%,-8%,1%
COc1cc(NC(=O)Cc2ccccc2)ccc1NC(=O)c1ccccc1,8%,-2%[46.1 µM],x,x,-13%,-1%[46.1 µM],15%,9%
CC(=NCc1ccco1)c1c(O)n(-c2ccc(C)cc2)c(=O)[nH]c1=O,-1%,x,x,x,-1%,x,-4%,-4%
CCOC(=O)c1ccc(NC(=O)C2=C(C)Nc3nc(SCc4ccc(Cl)cc4)nn3C2c2ccc(C)cc2)cc1 (stereo unspecified),x,-1%[46.1 µM],-2%,-1.4%,x,u,-16%,x
Cc1cc(C)nc(/N=C(\N)N2CCCCCC2)n1,-1%,-2%,-4%,-1.2%,7%,15%,-4%,-13%
CCOC(=O)C1=C(N)n2c(s/c(=C/c3ccccc3)c2=O)=C(C(=O)OCC)C1c1ccccc1 (stereo unspecified),0%,x,-9%,-1.5%,u,x,x,x
O=C1CC(N2CCN(c3ccccc3)CC2)C(=O)N1c1cccc(Cl)c1 (stereo unspecified),-31%,x,x,x,-23%,x,5%,-78%
Cc1cc(C)n(C(=O)Cn2nc([N+](=O)[O-])cc2C)n1,1%,-2%[46.1 µM],x,x,x,-1%,2%,-7%
Cc1ccc(C2(C)NC(=O)N(CC(=O)NC3CCCCC3)C2=O)cc1 (stereo unspecified),1%,-11%[46.1 µM],x,x,x,28%,1%,-10%
Cc1ccc(C(=O)NC2CCS(=O)(=O)C2)cc1S(=O)(=O)N1CCCCC1 (stereo unspecified),9%,9%,5%,2.5%,14%,6%,17%,-3%
Cc1ccc2ncc3c(-c4ccc(F)cc4)nn(-c4cccc(F)c4)c3c2c1,x,x,2%,1.5%,x,1%[46.1 µM],-17%,x
CCOc1ccc(CCNC(=O)c2cc(C)on2)cc1OCC,x,0%[46.1 µM],x,x,-1%,17%[46.1 µM],-14%,10%
CC(O)CNc1nc2c(c(=O)n(Cc3cccc(Cl)c3)c(=O)n2C)n1C (stereo unspecified),-10%,x,x,x,4%,x,-3%,1%
CSc1nnc(C2CCNCC2)n1C,4%,-6%[46.1 µM],-2%,-0.2%,7%,21%,-11%,-8%
c1cc(CN2CCCCC2)cc(OCCCNc2nc3ccccc3s2)c1,x,12µM*,7%&0%,-10%&-5.7%,-23%,16µM*,-15%&-17%&-22%,-23%[18.4 µM]
O=C(/C(=C/O)N=Nc1ccc(Cl)cc1)c1ccncc1,-26%,u,u,-5.6%,-127%,u,32µM*,20µM*
CCCCCNS(=O)(=O)c1cc2c3c(c1)CCC(=O)N3CCC2,0%,x,x,x,5%,x,54%[activator],24%
OCCN1CCN(CC(O)COc2ccc(C34CC5CC(CC(C5)C3)C4)cc2)CC1 (stereo unspecified),-9%,u,x,x,-1%,u,-17%,23%
CC1(C)CC(NC(=O)c2cccc3ccccc23)CC(C)(C)N1,2%,-8%,u,4.7%,0%,0%,-5%,1%
COP(=O)(OC)c1nc(-c2ccc([N+](=O)[O-])cc2)oc1N1CCCCC1,1%,x,x,x,-5%,x,-13%,8%
N#Cc1ccc(CN2C(=O)c3ccccc3Sc3ccc(C(=O)OCc4ccco4)cc32)cc1,x,x,-3%,-1.1%,x,15%[46.1 µM],-18%,x
NNc1nc(Nc2ccccc2)nc(N2CCCCC2)n1,-3%,-25%,13µM*,-11%,29%,-2%,x,-20%
C=CCn1c(SCC(=O)N2CCc3ccccc3C2)nc2sc(C)cc2c1=O,5%,u,4%,-1.4%,10%,u,22µM*,14%
O=C(Cn1ncc2c3ccccc3n(Cc3ccccc3)c2c1=O)NCc1ccccn1,-7%,13%&13%[46.1 µM],20%,-1.9%,10%,10%[46.1 µM],-8%&-6%,-2%
C/C(=N\NC(=O)COc1ccc(C(C)(C)C)cc1)c1ccc(OC(F)F)cc1,2%,u,13%,-12%,16%,u,-5%,-1%
O=C1CCCC2=C1C(c1ccccc1)CC(=O)N2c1ccccc1 (stereo unspecified),0%,u,4%,0.6%,8%,2%,-8%,15%
CC(=O)CC(=O)Nc1ncc(C(F)(F)F)cc1Cl,-1%,0%[46.1 µM],x,x,x,u,1%,0%
Cc1ccc(Cn2c(=O)n(Cc3ccco3)c(=O)c3ccccc32)cc1,16%,0%[46.1 µM],-3%,-5.0%,-12%,2%,-11%,35%
Cc1ccc(N2C(=O)C(Cc3ccccc3)NC2=S)cc1 (stereo unspecified),-2%,4%,-9%,1.7%,10%,-4%,x,1%
O=C(Nc1cccc(F)c1)c1c(F)c(F)c(F)c(F)c1F,-21%,-52%,-10%,1.8%,-43%,-21%,u,38%
Cc1cc([N+](=O)[O-])nn1CCCC(=O)O,-4%,9%[46.1 µM],x,x,x,-8%[46.1 µM],-18%,-10%
# (listing goes on)
SMILES,SARS PLpro yeast,Marburg entry inh,Cruzain inh noDet,Cruzain inh Det,NS1 inh,LASV entry inh,2A StopGo,RE007 growth inh
COc1ccc(/C=N/N=C2/NC(=O)C(c3ccccc3)(c3ccccc3)S2)cc1,-3%,-22%,3.2µM*,-2.1%,-5%,-15%,x,-4%
CC(C)Oc1cc2oc(=O)c3c(c2cc1Cl)CCC3,1%,-2%,-28%,-0.8%,-1%,13%,9%,-17%
CCN(CC(=O)NC1CCCC1)S(=O)(=O)c1ccc(C)cc1,2%,1%,-5%,-0.3%,-3%,12%,x,2%
Cc1cc(/C=C(\C#N)C(=O)O)c(C)n1CC(C)C,28%,-2%,-1%,-6.8%,11%,x,21%,6%
Cc1cc(C)c(-n2c(C)cc(/C=C3/NC(=O)NC3=O)c2C)c(C)c1,-38%,u,-3%,-15%,-50%,-26%,u,41%

# Screening results from PubChem BioAssay.

# Compounds were not picked by outcome. About 4.7% of those tested had a hit in this group.
